Screens deposited in PubChem by National Center for Advancing Translational Sciences (NCATS).
Rango dissoc inh – inhibitors of RanGTP-induced Rango-importin beta complex dissociation; Potency, µM (top dose mostly 46.1 µM), for the others: at the highest dose activity change, negative = inhibition; O95149+P62826; Biochemical FRET Rango-importin beta, RanGTP-induced dissociation; actives 0.071% (n = 340,000); active means falling FRET ratio curve, often poorly fitted, with flat reads before Ran was added; inconclusive means other falling curves, or compound fluorescence or quenching; inactive means flat or rising ratio curve;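 further: potency means the concentration at half of the fitted maximal effect; % of control where 0% means no effect; nearly all actives have a fitted effect of over 45% in size; -100% = wells without RanGTP and RCC1; the record marks most hits as doubtful in a second field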
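Compounds sat 5 min at room temperature with 0.1 uM Rango biosensor plus 0.25 uM importin beta, then FRET pre-read. RanGTP-RCC1 (0.6 uM Ran, 2mM GTP, 0.2 uM RCC1) added for 45 min, and the CFP/YFP post-read measured blocked complex dissociation.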
miR-21 FLuc – raises the signal of a miR-21 reporter; 340,000 tested, under 10 active; HeLa miR-21 FLuc reporter, luciferase, 48 h; Potency, µM (titrated, usually from 38.3 µM), for the others: at the highest dose reporter change, positive = more light; active = well fitted rising curve with a large enough effect; inconclusive = small, poorly fitted or top-dose-only effect; inactive = no such curve, though single readings can be large or run the other way;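 further: % of control where 0% means no effect; miR-21 action dims this reporter so a rising signal means less miR-21 action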
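Compounds were titrated across several concentrations (up to approximately 40 uM) and incubated 48 hours with HeLa miR-21-FLuc reporter cells (miR-21 target sequence downstream of FLuc, endogenous miR-21). Readout was firefly luciferase luminescence after lytic detection reagent.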
GLA inh pH 4.5 – blocks human alpha-galactosidase A at pH 4.5 | 230,000 tested, under 10 active | P06280 | purified enzyme, 4-MU-alpha-Gal fluorescence, pH 4.5 | activity change, negative = inhibition, % at 105 µM; inconclusive = small, poorly fitted or top-dose-only inhibition, or a rising curve; inactive = flat fitted curve, though single readings scatter; no compound was filed as active;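 further: 0% = full activity with enzyme and -100% = basal without enzyme; dose as in the result columns while the protocol names 77 µM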
Rango complex inh – inhibitors of Rango-importin beta complex formation. Rango CFP/YFP FRET sensor + importin beta, 45 min. actives 0.031% (n = 340,000). AID 540263. Q14974. Potency, µM (titrated, usually from 92.2 µM), for inactives: at the top dose inhibition of complex formation; active = rising FRET ratio curve, often small or poorly fitted; inconclusive = mostly compound fluorescence or quenching in the first reads; inactive = flat curves in all reads;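 further: potency means the concentration at half of the fitted maximal effect; 0% = DMSO wells and 100% = buffer wells lacking importin beta; nearly all actives have a fitted effect of over 15% in size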
Target sequence (Q14974 whole entry, looked up): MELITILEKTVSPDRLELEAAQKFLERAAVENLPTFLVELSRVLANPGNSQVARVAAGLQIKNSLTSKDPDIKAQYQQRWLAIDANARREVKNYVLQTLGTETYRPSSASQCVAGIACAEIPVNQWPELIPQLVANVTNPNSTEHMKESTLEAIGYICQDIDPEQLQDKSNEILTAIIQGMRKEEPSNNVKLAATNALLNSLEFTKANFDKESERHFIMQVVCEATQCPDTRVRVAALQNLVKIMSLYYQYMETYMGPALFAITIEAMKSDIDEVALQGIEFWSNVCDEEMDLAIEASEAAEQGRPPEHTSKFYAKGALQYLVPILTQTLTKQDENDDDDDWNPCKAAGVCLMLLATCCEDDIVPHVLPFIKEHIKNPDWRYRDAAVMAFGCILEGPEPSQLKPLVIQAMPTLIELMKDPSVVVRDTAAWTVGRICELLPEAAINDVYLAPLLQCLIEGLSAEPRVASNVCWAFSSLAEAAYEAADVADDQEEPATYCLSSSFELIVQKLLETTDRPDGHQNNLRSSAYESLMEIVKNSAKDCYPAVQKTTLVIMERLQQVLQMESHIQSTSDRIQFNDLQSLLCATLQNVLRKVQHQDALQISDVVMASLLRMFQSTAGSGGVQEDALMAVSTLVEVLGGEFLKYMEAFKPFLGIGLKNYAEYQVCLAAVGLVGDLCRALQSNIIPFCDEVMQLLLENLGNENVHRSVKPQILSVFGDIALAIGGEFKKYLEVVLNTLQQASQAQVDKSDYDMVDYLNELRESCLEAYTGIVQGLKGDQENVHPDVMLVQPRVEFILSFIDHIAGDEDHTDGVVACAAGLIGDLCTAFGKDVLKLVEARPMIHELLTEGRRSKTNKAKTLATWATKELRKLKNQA
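FRET biosensor Rango (snurportin 1 IBB between N-terminal EYFP and C-terminal Cerulean), 50 nM in PBS/1 mM DTT/0.02% Tween-20/0.1% BSA, preincubated 5 min RT with compound; 0.125 microM importin beta added, 45 min RT, CFP/YFP FRET ratio read.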
* = called active by the depositor; ? = inconclusive; . = not tested or not shown; & = joins results of further samples. Only part of the results is shown, so the mix of outcomes need not match the whole.

SMILES	Rango dissoc inh	miR-21 FLuc	GLA inh pH 4.5	Rango complex inh
O=S(=O)(O)c1ccc(N2N=C(c3ccccc3)CC2c2ccccc2)cc1 (centres undefined)	?	1.1%	?	?
COCc1cc(=O)[nH]c(/N=C(\N)Nc2cccc(Cl)c2)n1	-11.0%	0.7%	-2.1	-0.2%
CCc1ccccc1NC(=O)CN(C)C(=O)c1cc(C2CC2)nn1-c1ccccc1	21.3%	.	.	2.6%
CCNC(=O)NCCNC(=O)c1cc(OCC(F)(F)F)ccc1OCC(F)(F)F	-3.5%	-27.9%	5.7	2.2%
COc1ccc(OC)c(CC(=O)N2CCc3cc(OC)c(OC)cc3C2)c1	-4.6%	-4.7%	.	-0.1%
Cc1cc(C)nc(NNS(=O)(=O)c2ccc(F)c(Cl)c2)n1	-14.5%	.	.	-0.1%
Cc1ccnc2nc(C(=O)NCc3ccccc3)nn12	1.7%	-6.7%	1.0	-2.0%
CCCOc1ccccc1N/C(N)=N/c1nc(C)cc(C)n1	8.0%	23.9%	3.0	-0.1%
CCOC(=O)C1CCCN(C(=O)C2CCN(S(=O)(=O)c3ccc4ccccc4c3)CC2)C1 (centres undefined)	-1.2%	11.5%	.	-2.2%
COc1cc(NC(=O)c2cc(Br)cc(C)c2OC)ccc1NC(=O)C(C)C	12.1%	0.9%	2.6	-3.3%
O=C(COC(=O)c1c2c(nc3ccccc13)/C(=C\c1ccco1)CC2)NC1CCCC1	?	.	.	?
COc1ccc2[nH]c(=O)c(C(c3nnnn3CC3CCCO3)N3CCc4ccccc4C3)cc2c1 (centres undefined)	6.7%	-6.5%	7.0	0.0%
COc1ccc(C(=O)NC(=S)Nc2ccc(S(=O)(=O)Nc3cc(OC)nc(OC)n3)cc2)cc1	0.6%	-21.5%	.	0.4%
Cc1ccccc1-c1cc(C(=O)n2cccn2)c2cc(Cl)ccc2n1	0.7%	12.9%	4.7	4.1%
CC(=O)c1cccc(N(C(=O)Cn2nnc3ccccc32)C(C(=O)NCc2ccccc2)c2ccccn2)c1 (centres undefined)	8.9%	-6.6%	-19.5	2.9%
COC(=O)CCC(=O)OC1(C)C(=O)C=C2C=C(C3CC3)N(CCCOC(C)C)C=C2C1=O (centres undefined)	-21.3%	5.8%	3.0&-4.9	?
Cc1ccc(-n2nc3c(=O)n(CCCC(=O)N4CCC(C(N)=O)CC4)nc(C)c3c2C)cc1	43.2%	-0.3%	.	0.7%
Cc1ccc(S(=O)(=O)N2CCN(CC(=O)Nc3ccccc3Cl)CC2)cc1	?	.	.	-2.0%
Cc1ccc(S(=O)(=O)/N=C(/NC(=S)Nc2c(C)n(C)n(-c3ccccc3)c2=O)c2ccccc2)cc1	-5.2%	-1.7%	10.3	1.0%
COc1ccccc1/C=C1\SC(=S)N(CC(=O)Nc2nnc(C)s2)C1=O	.	-0.3%	1.9	.
CC(C)C(NC(=O)C1CCCCC1)C(=O)NCc1ccccn1 (centres undefined)	4.0%	-4.4%	-17.6	4.0%
CCC(C)c1c(NS(=O)(=O)c2ccc(C)cc2)o[nH]c1=O (centres undefined)	-9.8%	.	.	0.1%
CCO[C@@H]1OC(C(=O)NCc2ccccc2)=C[C@H](C2CCCCC2)[C@H]1CCCO	0.8%	3.8%	-15.1	-0.6%
O=C(NCCc1nnc2ccc(NCc3cccnc3)nn12)c1ccccc1F	3.9%	3.1%	5.6	0.8%
Cc1cccc(CCNC(=O)c2cccc(NC3=NC4CS(=O)(=O)CC4S3)c2)c1 (centres undefined)	-3.1%	-2.5%	.	1.9%
COCc1ccc(C(=O)N2CCCC(C(=O)c3ccc(Cl)cc3C)C2)o1 (centres undefined)	13.7%	6.3%	.	-5.1%
COc1ccc(Oc2coc3cc(OC(=O)c4cncc(Br)c4)ccc3c2=O)cc1	2.5%	-8.6%	1.0	6.3%
Cc1ccc(CN=C(N)Nc2nc(C)cc(C)n2)cc1	-5.8%	24.4%	12.3	?
OC(COc1ccccc1)CN(Cc1ccccc1)CC(O)COc1ccccc1 (centres undefined)	-4.5%	.	.	-0.6%
Cc1occc1-c1nnc(SCC(=O)NCc2ccc3c(c2)OCO3)n1CC(C)C	-7.5%	-8.2%	-7.2	0.6%

One compound at a time, as listed above. Screens in order: Rango dissoc inh, miR-21 FLuc, GLA inh pH 4.5, Rango complex inh
Shown for `Cc1ccc(-n2nc3c(=O)n(CCCC(=O)N4CCC(C(N)=O)CC4)nc(C)c3c2C)cc1` : 43.2%, -0.3%, ., 0.7%
Shown for `CC(C)C(NC(=O)C1CCCCC1)C(=O)NCc1ccccn1` (centres undefined) : 4.0%, -4.4%, -17.6, 4.0%
Shown for `COc1ccccc1/C=C1\SC(=S)N(CC(=O)Nc2nnc(C)s2)C1=O` : ., -0.3%, 1.9, .
Shown for `CCO[C@@H]1OC(C(=O)NCc2ccccc2)=C[C@H](C2CCCCC2)[C@H]1CCCO` : 0.8%, 3.8%, -15.1, -0.6%
Shown for `Cc1ccc(S(=O)(=O)/N=C(/NC(=S)Nc2c(C)n(C)n(-c3ccccc3)c2=O)c2ccccc2)cc1` : -5.2%, -1.7%, 10.3, 1.0%

Continuation:
SMILES	Rango dissoc inh	miR-21 FLuc	GLA inh pH 4.5	Rango complex inh
CCOc1ccc2[nH]c(=O)c(C(c3nnnn3Cc3ccco3)N3CCN(C)CC3)cc2c1 (centres undefined)	0.9%	21.3%	-12.3	-0.3%
NC1=NN(c2c(Cl)cc(Cl)cc2Cl)C(=O)C1	0.5%	.	.	-1.8%
O=C(NNS(=O)(=O)c1ccc(CCCl)cc1)C(O)(c1ccccc1)c1ccccc1	-2.1%	-1.8%	-29.8	0.5%
COc1ccccc1OCc1ccc(C(=O)N(C)c2ccccc2)o1	9.9%	-10.2%	.	-0.9%
Cc1cc(NC(=O)CCN2C(=O)C3C4CCC(C4)C3C2=O)cc(C)c1Br (centres undefined)	-10.9%	4.6%	-4.2	0.5%
Cc1ccc(C)c(NC(=O)C2CCCN2C(=O)OC(C)(C)C)c1 (centres undefined)	-1.4%	-1.5%	-4.0	-0.4%
CCN1CCCC1CNC(=O)c1cc(NC(C)=O)c(N(C)C)cc1OC (centres undefined)	-4.1%	-3.6%	7.3	-3.5%
CNc1ccccc1	20.4%	.	.	-0.7%
CC(=O)/C(C#N)=C1\NC(=O)C(Cc2cc(Cl)ccc2Cl)S1 (centres undefined)	-15.3%	26.3%	-1.3	-6.0%
Fc1ccc(N2CCN(c3ncnc4c3nnn4Cc3ccccc3Cl)CC2)cc1	14.8%	.	.	5.1%
O=C(NC1CCc2ccccc21)C1CCN(S(=O)(=O)c2ccc(Cl)cc2)CC1 (centres undefined)	0.8%	-5.1%	-0.5	0.0%
Cc1oc(-c2ccc(Cl)cc2)nc1CN1CCC(C(=O)NCCCN2CCCC2=O)CC1	2.5%	-3.6%	2.4	10.0%
CN(C)CCCNS(=O)(=O)c1cc(Cl)ccc1Cl	6.8%	-39.8%	-1.4	0.0%
O=C(NCCCN1CCCC1)C1CCN(C(=O)c2cc3sccc3n2Cc2ccc(F)cc2)CC1	6.4%	-5.9%	-19.5	9.4%
COc1cc(CNC2CCCCCC2)cc(OC)c1OC	-9.6%	-7.9%	-4.0	-1.0%
CC(C)C1CC(O)(C2(O)CCCCC2)ON1 (centres undefined)	-5.0%	-2.7%	0.3	-1.2%
COc1ccc(C2C(C(C)=O)=C(O)C(=O)N2CCO)c(OC)c1 (centres undefined)	-12.2%	-2.6%	1.3	0.5%
Cc1ccc(N/N=C2\CCS(=O)(=O)c3sccc32)cc1	-10.2%	-30.0%	?	-1.2%
CN(C)S(=O)(=O)N(CCN1CCOCC1)Cc1ccccc1F	-16.1%	-1.7%	-15.5	-4.9%
Nc1cccc2c1C(=O)N(CCOc1ccc(F)cc1)C2=O	?	-78.3%	.	?
C=C(C)Cn1c(=O)c2c(nc3n2CCCN3Cc2ccccc2)n(C)c1=O	2.0%	6.5%	.	0.8%
O=C(Cn1nc(-c2ccccc2)nc1-c1ccccc1)N1CCOCC1	0.0%	-3.2%	7.3	-0.6%
Cc1cccc(C(=O)OCC(=O)c2c(N)n(CC(C)C)c(=O)n(C)c2=O)c1[N+](=O)[O-]	7.4%	.	.	2.9%
Cc1ccc(F)cc1NC(=O)c1ccc(NS(=O)(=O)c2ccc(Br)s2)cc1	3.9%	-10.1%	-4.6	-0.2%
O=C(NC1CCN(Cc2ccccc2)CC1)c1ccccc1F	5.1%	0.3%	-7.6	-3.3%
CCOC(=O)COc1cccc2c(=O)n(CC(=O)NCc3ccccc3)ccc12	4.0%	14.3%	-3.6	2.9%
Cc1noc(NS(=O)(=O)c2ccc(NC(=O)CC(C)C)cc2)c1C	-1.9%	0.2%	.	2.2%
COc1ccc(-c2ccc(S(=O)(=O)N3CCCC3)cc2)cc1	10.2%	4.4%	7.1	-3.0%
Cn1c(=O)cc(Nc2ccccc2)c2c(=O)n(-c3ccccc3)c(=O)n(-c3ccccc3)c21	14.0%	-2.4%	-10.4	0.1%
COc1ccc2[nH]c(C)c(C(=O)CN3CCN(C(=O)c4ccco4)CC3)c2c1	-3.3%	-6.5%	-20.4	?
NNC(=O)c1cc(S(=O)(=O)N2CCOCC2)c[nH]1	0.4%	.	.	0.1%
O=C(C(Cc1ccccc1)N1C(=O)c2ccccc2C1=O)N1c2ccccc2CCc2ccccc21 (centres undefined)	-0.2%	16.8%	-8.4	0.5%
CC(=O)/C(=N\Nc1cccc(Cl)c1)Sc1nnc(-c2ccccc2)n1-c1ccccc1	-1.2%	-4.0%	7.4	-4.6%
CS(=O)(=O)N1CCC(C(=O)Nc2ccccc2Br)CC1	1.8%	-6.2%	.	4.5%
NC(=O)C1CCN(C(=O)c2cc3ccccn3n2)CC1	-5.0%	-1.5%	-6.9	-2.4%
O=C(O)CN1C(=O)c2ccc(Oc3cccc4c3C(=O)N(CC(=O)O)C4=O)cc2C1=O	-11.5%	-3.1%	-0.3	-3.8%
Cc1nn(C)c(Oc2cccc(C(F)(F)F)c2)c1C=O	6.6%	-2.0%	-0.1	0.3%
Cc1sc2nc(-c3ccc(Br)cc3)oc(=O)c2c1C	6.3%	0.3%	.	2.5%
Cc1ccc(S(=O)(=O)N2CCCCC2)cc1NC(=O)COC(=O)Cc1c(F)cccc1Cl	5.9%	0.8%	-8.1	-0.3%
COCCN(CC1CCCN(C2Cc3ccccc3C2)C1)C(=O)c1ccc(C(C)=O)cc1 (centres undefined)	2.5%	-1.8%	.	-0.4%
CN1C(=O)c2ccc(C(=O)Nc3ccc(Br)cn3)cc2C1=O	4.9%	1.5%	.	-4.1%
CS(=O)(=O)c1ccccc1-c1nnc(NC(=O)COc2ccc(Cl)cc2)o1	-2.0%	.	.	4.8%
COc1ccc(C(=O)Cc2cc(OC)c(OC)cc2C(=O)c2ccccc2F)cc1OC	4.5%	-7.1%	4.3	0.2%

Of the compounds above, 6 have two or more sulfur atoms:
SMILES	Rango dissoc inh	miR-21 FLuc	GLA inh pH 4.5	Rango complex inh
COc1ccc(C(=O)NC(=S)Nc2ccc(S(=O)(=O)Nc3cc(OC)nc(OC)n3)cc2)cc1	0.6%	-21.5%	.	0.4%
Cc1ccc(S(=O)(=O)/N=C(/NC(=S)Nc2c(C)n(C)n(-c3ccccc3)c2=O)c2ccccc2)cc1	-5.2%	-1.7%	10.3	1.0%
COc1ccccc1/C=C1\SC(=S)N(CC(=O)Nc2nnc(C)s2)C1=O	.	-0.3%	1.9	.
Cc1cccc(CCNC(=O)c2cccc(NC3=NC4CS(=O)(=O)CC4S3)c2)c1 (centres undefined)	-3.1%	-2.5%	.	1.9%
Cc1ccc(N/N=C2\CCS(=O)(=O)c3sccc32)cc1	-10.2%	-30.0%	?	-1.2%
Cc1ccc(F)cc1NC(=O)c1ccc(NS(=O)(=O)c2ccc(Br)s2)cc1	3.9%	-10.1%	-4.6	-0.2%
